Source: PubChem (ICCB-Longwood Screening Facility, Harvard Medical School)
BasE inh – blocks the Acinetobacter baumannii siderophore enzyme BasE; purified BasE, fluorescence polarization binding displacement; inhibition, % (no concentration beside the values); 84,000 compounds, 0.1% hits; AID 485350;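 active means both replicates above 25% with normal brightness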;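 further: 0% = negative plate control signal and 100% = positive plate control signal; stock transfer was 100 nL into about 30 µL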
KSHV LANA nucl – LANA-nucleosome interaction inhibition. FITC-LANA1-23 / chicken nucleosome fluorescence polarization; stronger effect = lower value. z-score (test concentration not listed). 51,000 compounds, 0.3% hits. AID 720717;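 active means both repeat wells score below -2 in polarization z-score versus plate sample wells, excluding overly bright wells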;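 further: 100 nL library stock added to about 30 µL; numbers are from one replicate; some results filed as inactive read as strong as hits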
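Assay system: FITC-LANA peptide and chicken nucleosomes; input: 240 nM purified chicken nucleosomes (480 nM peptide binding sites), final; also added: 50 nM FITC-LANA1-23 probe; medium: TEN-BT buffer, pH 7.5; doses: pin-transferred compound, 100 nL; times: 10–45 min, room temperature; technique: fluorescence polarization; replication: duplicates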
Starred values were filed as active, the others as inactive; · = not tested or not shown. These rows are one share of the data. The share of hits here may be higher or lower than overall.

canonical_smiles,BasE inh,KSHV LANA nucl
Cn1c(SCC(=O)c2ccc(O)cc2O)nc2sccc2c1=O,1.5,·
CCSC(=C(C#N)C#N)c1cc2c([nH]1)CCCC2,0.3,0.547
OC(COCc1ccccc1)Cn1cnc2ccccc21 (stereo not given),3.1,-0.378
C=CCNc1nc(N2CCCCC2)nc(N2CCCCC2)n1,-0.5,-0.132
C/C(N)=C(/C#N)C(=O)CSc1nncn1-c1ccccc1,1.4,·
Cc1cc(S(=O)(=O)c2cc3ccc(O)c(C)c3oc2=O)ccc1F,2.1,-1.64
CC1(C)C(=O)Nc2ccccc2N1C(=O)COc1ccc(C#N)cc1,0.6,·
COc1ccc(Cl)cc1NC(=O)CSCc1cnn(-c2ccccc2)c1-n1cccc1,-0.8,-0.508
CCN1CCCC1CNC(=O)c1ccc2c(c1)[nH]c(=O)n2Cc1ccc(OC)cc1 (stereo not given),-4.6,-0.194
CCCCNC(=O)c1cc2ccccc2s1,-5.9,0.324
CC(c1ccccc1)N1C(=O)CC(Sc2ncccc2C(=O)O)C1=O (stereo not given),1.3,-0.172
Cc1ccccc1NC(=O)C1C(=O)N(CCO)C2(C)CC1c1ccccc1O2 (stereo not given),0.9,0.431
O=C(CCCN1C(=O)c2cccnc2Sc2ccccc21)N1CCCC1,0.6,-0.004
O/N=C1/CCSc2ccccc21,2.5,0.376
CC(C)C(=O)OCC(=O)Nc1ccc(S(=O)(=O)N(C)C)cc1,0.1,·
O=C(CSc1nnnn1-c1ccc(O)cc1)N1CCSC1c1ccccc1F (stereo not given),1.7,·
CCC(c1nnc(SCC(=O)NC23CC4CC(CC(C4)C2)C3)o1)N(C)C (stereo not given),1.9,·
CCOC(=O)C(C)Sc1nnc(CNC(=O)C23CC4CC(CC(C4)C2)C3)n1-c1ccccc1 (stereo not given),0.1,·
COc1ccc(CNCc2cccc(OC)c2)cc1,2.4,·
COc1ccc(N2CCN(C(=O)c3ccccc3N(C)S(C)(=O)=O)CC2)cc1,1.1,0.131
Cc1nc(=S)[nH]c(C)c1CCC(=O)N1CCN(S(=O)(=O)c2ccc(F)cc2)CC1,2.3,·
O=C(OCc1ccc2c(c1)OCO2)OCc1ccc2c(c1)OCO2,0.2,·
CC(Sc1n[nH]c(N)n1)C(=O)OC1CCCCC1 (stereo not given),0.1,-1.43
COc1ccc2oc(=O)c(/C(C)=N/O)cc2c1,-0.3,·

Some of the entries so far, as labelled records:
Cc1ccccc1NC(=O)C1C(=O)N(CCO)C2(C)CC1c1ccccc1O2 (stereo not given)
  BasE inh: 0.9 | KSHV LANA nucl: 0.431

O=C(CCCN1C(=O)c2cccnc2Sc2ccccc21)N1CCCC1
  BasE inh: 0.6 | KSHV LANA nucl: -0.004

The list goes on:
canonical_smiles,BasE inh,KSHV LANA nucl
O=C(c1cccc(Br)c1)N(Cc1cccs1)Cc1cccs1,0.6,·
O=C(O)CN1C(=O)/C(=C2/OC(=O)c3ccccc32)SC1=S,-1.6,0.714
O=C1C2C(c3ccccc3)C=CC(c3ccccc3)C2C(=O)N1c1cccc(Br)c1 (stereo not given),1.8,·
CC(NC(=O)CSc1nnc(-c2ccc(F)cc2)o1)c1ccc(Br)cc1 (stereo not given),1.6,·
CC(C)NC(=O)CSc1nc2ccccc2[nH]1,0.6,0.868
CN(C)CCCn1c(N)nc2ccccc21,1.4,-0.145
O=C(O)CCC(=O)Nc1nc2n(n1)C(c1ccccc1)CC(=O)N2 (stereo not given),1.0,·
CCCOc1ccc2oc(=O)c3c(c2c1)CCCN3C(=O)CN(CC)c1cccc(C)c1,1.1,0.447
CC(=O)NCc1ccc(C(=O)CSc2nc(C3CC3)n(-c3ccccc3)n2)s1,0.5,·
CS(=O)(=O)Nc1cccc(C(=O)OC2CCOC2=O)c1 (stereo not given),0.9,·
CN(C)c1oc(COc2ccc(F)cc2)nc1C#N,1.7,0.58
CCOC(=O)Cn1c(=O)c(-c2nc(-c3ccccc3)cs2)cn(C(C)C)c1=O,1.6,·
O=C(Cn1c(NCCO)nc2ccccc21)N1CCOCC1,1.4,·
COc1ccc(CC(=O)OCC(=O)Nc2ccc3c(c2)OCO3)cc1,-1.1,·
Cc1ccc(C)n1-c1ccc(C(=O)N2CCCCC2C)cc1 (stereo not given),-0.4,·
CCn1c2ccccc2c2cc(N=Cc3ccc(OC(=O)c4ccco4)cc3)ccc21,3.0,·
CCN(CC)c1ccc(-c2cc(C(=O)O)c3c(ccc4ccccc43)n2)cc1,1.0,·
CC(C)CCNC(=O)c1cc2ccc3cccnc3c2[nH]1,-14.8,·
Cc1c(CC(=O)N2CCOCC2)c(=O)oc2cc3occ(-c4ccc(F)cc4)c3cc12,-0.6,0.299
NNC(=S)NCc1ccc2c(c1)OCO2,0.3,·
Cc1cc(CSc2ccccc2C(=O)OCc2nc3sc4c(c3c(=O)[nH]2)CCC4)no1,-1.9,·
O=C(Nc1ccc2c(c1)nc1n2CCCCC1)c1ccc(S(=O)(=O)C(F)F)cc1,3.6,·
CCCNC(=O)C1CCN(S(C)(=O)=O)CC1,3.1,-0.902
CCN(Cc1ccccc1)C(=O)CSc1nnc(C)c(=O)n1N,0.9,·

14 of these compounds in another layout.
Order of values: BasE inh | KSHV LANA nucl
CS(=O)(=O)Nc1cccc(C(=O)OC2CCOC2=O)c1 (stereo not given)
→ 0.9 | ·
CN(C)c1oc(COc2ccc(F)cc2)nc1C#N
→ 1.7 | 0.58
CCOC(=O)Cn1c(=O)c(-c2nc(-c3ccccc3)cs2)cn(C(C)C)c1=O
→ 1.6 | ·
O=C(Cn1c(NCCO)nc2ccccc21)N1CCOCC1
→ 1.4 | ·
COc1ccc(CC(=O)OCC(=O)Nc2ccc3c(c2)OCO3)cc1
→ -1.1 | ·
Cc1ccc(C)n1-c1ccc(C(=O)N2CCCCC2C)cc1 (stereo not given)
→ -0.4 | ·
CCn1c2ccccc2c2cc(N=Cc3ccc(OC(=O)c4ccco4)cc3)ccc21
→ 3.0 | ·
CCN(CC)c1ccc(-c2cc(C(=O)O)c3c(ccc4ccccc43)n2)cc1
→ 1.0 | ·
CC(C)CCNC(=O)c1cc2ccc3cccnc3c2[nH]1
→ -14.8 | ·
Cc1c(CC(=O)N2CCOCC2)c(=O)oc2cc3occ(-c4ccc(F)cc4)c3cc12
→ -0.6 | 0.299
NNC(=S)NCc1ccc2c(c1)OCO2
→ 0.3 | ·
Cc1cc(CSc2ccccc2C(=O)OCc2nc3sc4c(c3c(=O)[nH]2)CCC4)no1
→ -1.9 | ·
O=C(Nc1ccc2c(c1)nc1n2CCCCC1)c1ccc(S(=O)(=O)C(F)F)cc1
→ 3.6 | ·
CCCNC(=O)C1CCN(S(C)(=O)=O)CC1
→ 3.1 | -0.902

(next part)
canonical_smiles,BasE inh,KSHV LANA nucl
COc1ccc(Cl)cc1NC(=O)c1cc2c(CO)cnc(C)c2oc1=N,-0.6,-0.754
Cc1ccc(SCC2=NN(c3nc(C)cc(C)n3)C(=O)C2)cc1,1.6,-0.709
CCC(COc1nnnc2ccccc12)NC(=O)c1cnc(C)cn1 (stereo not given),1.8,-1.5
NCC1CCN(C2CCCC2)CC1,-0.3,-0.839
Oc1cc(C2CCCCC2)cc(C2CCCCC2)c1,2.8,·
CC(C)NC(=O)n1ncc(S(=O)(=O)c2ccc(Cl)cc2)c1-c1ccc(Cl)cc1,1.0,·
Cc1nnsc1-c1noc(CS(=O)(=O)c2ccc(Cl)cc2)n1,0.8,0.677
OCc1cccnc1Sc1ccccc1,·,0.147
Cc1ccc(-c2cn3c(=S)[nH]nc3s2)cc1,2.4,-1.38
COC(=O)CCN1C(=O)/C(=C\c2cccs2)SC1=S,0.0,·
c1cc[n+](C[n+]2ccccc2)cc1,3.0,·
NC(=O)CSc1nc2scc(-c3ccco3)c2c(=O)n1-c1ccccc1,-1.0,·
CC(C)(C)Nc1ncnc2c1sc1nc3c(cc12)COC(C)(C)C3,2.8,·
CC1CN(C(=O)CS(=O)(=O)c2ccc(F)cc2)CC(C)O1 (stereo not given),·,-1.5
O=C(Nc1ccncc1)OC1CCCC1,0.0,-0.719
CNC(=O)C1CCN(C(=O)N2CC(C)Oc3ccccc32)CC1 (stereo not given),-2.5,1.98
O=C1c2ccccc2C(=O)N1Cc1ccncc1,17.6,·
Cc1onc(-c2ccccc2)c1C(=O)N1CCCSC1=Nc1ccccc1,0.6,·
CCOC(=O)N1CCN(C(=O)c2noc3c2CCCC3)CC1,0.3,·
N#CC1=CN(Cc2ccccc2)C=C(/C=N/Nc2ccc(F)cc2)C1,0.3,·
COc1cccc(C=Nc2ccccc2N2C(=O)c3ccccc3C2=O)c1O,-0.6,·
Cc1c(C=Nc2ccc(C(C)C)cc2)sc2ccccc12,2.1,·
Fc1ccc(Cn2nnc3ccccc32)cc1,3.1,·
C=CCn1c(CSc2nc3ccccc3s2)nnc1SCC(=O)NCCN1CCOCC1,0.4,0.771

Later entries:
Compound	BasE inh	KSHV LANA nucl
N#Cc1c(N2C(=O)C3C4C=CC(C4)C3C2=O)sc2c1CCCC2 (stereo not given)	1.9	-0.66
CN(C)CCS(C)(=O)=O	0.5	-0.16
ON=C1CC2C3C/C(=N\O)C4C3CC2C14 (stereo not given)	1.2	·
OCCc1ccccc1	·	0.162
CCN1C(=O)c2ccc(C(=O)Nc3nccs3)cc2C1=O	-2.5	-0.26
O=C1/C(=C/c2cccnc2)SC(=S)N1C1CCCC1	2.8	0.255
CC1(C)CC(NC(=O)COC(=O)CCc2ccc(S(=O)(=O)N3CCCCC3)cc2)CC(C)(C)N1	2.8	·
NC(=O)COC(=O)CCN1c2ccccc2Sc2ccccc21	0.1	·
COc1ccc(C)cc1Nc1nc2ccc(C)cc2n2cnnc12	2.6	0.139
CC(C)CCNC(=O)Cn1c(=O)c2cccn2c2ccc(F)cc21	2.6	0.373
CC(C)OC(=O)CNc1n[nH]c(=S)[nH]c1=O	1.5	-0.428
O=c1cc(O)n(-c2ccccc2)c(=S)[nH]1	1.8	-0.253
Cc1ccc(C(C)C)cc1S(=O)(=O)NCc1ccc2c(c1)OCO2	3.6	-0.854
Cc1ccc2oc(=O)c3cc(C(=O)N(C)CCC#N)sc3c2c1	-2.2	2.6
Cc1cccn2cc(CNC(=O)COc3ccccc3)nc12	-0.2	1.9
CN1C(=O)Cc2cc(S(=O)(=O)Nc3ccc(N4CCOCC4)cc3)ccc21	1.2	-1.16
C=CCN(CC=C)S(=O)(=O)Cc1ccc(Cl)cc1	-4.8	1.06
CN(C)C(=O)CS(=O)(=O)c1ccc(Cl)cc1	·	-0.057
O=C(N/N=C(\Cc1ncc[nH]1)c1ccccc1)c1ccncc1	1.0	·
COC(=O)C1=C(C)N(Cc2ccccc2)C(=O)/C1=C\c1cccc(O)c1	1.0	0.251
Cn1nc(SCC(=O)O)c(=O)n(C)c1=O	2.0	·
Cc1ccccc1NC(=O)Cn1c(=O)n(Cc2ccc(F)cc2)c(=O)c2cccnc21	-1.3	-0.898
Cc1c(S(=O)(=O)Nc2ccc(Cl)cc2)sc2ccc(Cl)cc12	-0.2	·
CC(C)(O)C(=O)/C=C/c1ccc2c(c1)OCO2	2.1	-0.311
CCC1CCCCN1S(=O)(=O)c1ccc(S(=O)(=O)N2CCN(c3ncccn3)CC2)cc1 (stereo not given)	2.5	-1.4
Cc1cccc(CSC(=N)N)c1	0.5	·
Oc1ccc(/C=N\N2CCN(c3ccccc3)CC2)cc1	2.4	0.0915
Cc1ccc(CN2CCN(N=Cc3ccccc3O)CC2)c(C)c1	-2.3	2.74
COc1cc(S(=O)(=O)n2cccn2)c(OC)cc1Cl	0.7	-0.859
CCCOc1ccc(C(=O)CCC(N)=O)cc1	-7.0	·
C=CCn1c(-c2ccc(OC)cc2)c(C)sc1=Nc1ccc(C)cc1	2.8	·
CC(=O)N1c2ccccc2CC1C(=O)N1CCN(c2ccc(Cl)cc2)CC1 (stereo not given)	1.0	-0.756
c1ccc(CCn2nnnc2C(c2cccnc2)N2CCCCC2)cc1 (stereo not given)	-2.6	0.528
O=C(COn1nnc2ccc(S(=O)(=O)N3CCOCC3)cc21)N1CCCc2ccccc21	-1.5	·
CCOc1ccc2c(c1)OC(c1ccc(OC)cc1)(C(F)(F)F)NC2=O (stereo not given)	2.1	·
Cc1cn(CCC(=O)Nc2ccc(N3CCOCC3)cc2)c2ccccc12	·	-0.115
O=C(c1cccc(C(F)(F)F)c1)N1CCCc2ccccc21	0.9	1.18
O=C(CN1CCN(S(=O)(=O)c2cccc(C(F)(F)F)c2)CC1)c1ccc[nH]1	-0.2	·
O=c1ccc(N2CCCCC2)n[nH]1	-0.1	0.537
CCOC(=O)CSc1n[nH]c(CC)n1	0.5	-0.557
